# Compound activity: PubChem BioAssay, National Center for Advancing Translational Sciences (NCATS)
# nsP2pro inh: inhibitors of chikungunya virus nsP2 protease; Q8JUX6; FRET peptide cleavage, nsP2pro, fluorescence 1 h; Potency, µM (series often up to 24.9 µM), inactives show at the highest dose activity change, negative = inhibition, actives largely listed as inhibitors; 1.1% of 31,000 active; active means well fitted inhibition curve with a large enough effect; inconclusive means small, poorly fitted or top-dose-only effect; inactive means no such curve, though single readings can be large or run the other way; also: nearly all actives have a fitted effect of over 60% in size; a reference inhibitor and vehicle were the controls
# Target sequence (Q8JUX6 whole entry, looked up): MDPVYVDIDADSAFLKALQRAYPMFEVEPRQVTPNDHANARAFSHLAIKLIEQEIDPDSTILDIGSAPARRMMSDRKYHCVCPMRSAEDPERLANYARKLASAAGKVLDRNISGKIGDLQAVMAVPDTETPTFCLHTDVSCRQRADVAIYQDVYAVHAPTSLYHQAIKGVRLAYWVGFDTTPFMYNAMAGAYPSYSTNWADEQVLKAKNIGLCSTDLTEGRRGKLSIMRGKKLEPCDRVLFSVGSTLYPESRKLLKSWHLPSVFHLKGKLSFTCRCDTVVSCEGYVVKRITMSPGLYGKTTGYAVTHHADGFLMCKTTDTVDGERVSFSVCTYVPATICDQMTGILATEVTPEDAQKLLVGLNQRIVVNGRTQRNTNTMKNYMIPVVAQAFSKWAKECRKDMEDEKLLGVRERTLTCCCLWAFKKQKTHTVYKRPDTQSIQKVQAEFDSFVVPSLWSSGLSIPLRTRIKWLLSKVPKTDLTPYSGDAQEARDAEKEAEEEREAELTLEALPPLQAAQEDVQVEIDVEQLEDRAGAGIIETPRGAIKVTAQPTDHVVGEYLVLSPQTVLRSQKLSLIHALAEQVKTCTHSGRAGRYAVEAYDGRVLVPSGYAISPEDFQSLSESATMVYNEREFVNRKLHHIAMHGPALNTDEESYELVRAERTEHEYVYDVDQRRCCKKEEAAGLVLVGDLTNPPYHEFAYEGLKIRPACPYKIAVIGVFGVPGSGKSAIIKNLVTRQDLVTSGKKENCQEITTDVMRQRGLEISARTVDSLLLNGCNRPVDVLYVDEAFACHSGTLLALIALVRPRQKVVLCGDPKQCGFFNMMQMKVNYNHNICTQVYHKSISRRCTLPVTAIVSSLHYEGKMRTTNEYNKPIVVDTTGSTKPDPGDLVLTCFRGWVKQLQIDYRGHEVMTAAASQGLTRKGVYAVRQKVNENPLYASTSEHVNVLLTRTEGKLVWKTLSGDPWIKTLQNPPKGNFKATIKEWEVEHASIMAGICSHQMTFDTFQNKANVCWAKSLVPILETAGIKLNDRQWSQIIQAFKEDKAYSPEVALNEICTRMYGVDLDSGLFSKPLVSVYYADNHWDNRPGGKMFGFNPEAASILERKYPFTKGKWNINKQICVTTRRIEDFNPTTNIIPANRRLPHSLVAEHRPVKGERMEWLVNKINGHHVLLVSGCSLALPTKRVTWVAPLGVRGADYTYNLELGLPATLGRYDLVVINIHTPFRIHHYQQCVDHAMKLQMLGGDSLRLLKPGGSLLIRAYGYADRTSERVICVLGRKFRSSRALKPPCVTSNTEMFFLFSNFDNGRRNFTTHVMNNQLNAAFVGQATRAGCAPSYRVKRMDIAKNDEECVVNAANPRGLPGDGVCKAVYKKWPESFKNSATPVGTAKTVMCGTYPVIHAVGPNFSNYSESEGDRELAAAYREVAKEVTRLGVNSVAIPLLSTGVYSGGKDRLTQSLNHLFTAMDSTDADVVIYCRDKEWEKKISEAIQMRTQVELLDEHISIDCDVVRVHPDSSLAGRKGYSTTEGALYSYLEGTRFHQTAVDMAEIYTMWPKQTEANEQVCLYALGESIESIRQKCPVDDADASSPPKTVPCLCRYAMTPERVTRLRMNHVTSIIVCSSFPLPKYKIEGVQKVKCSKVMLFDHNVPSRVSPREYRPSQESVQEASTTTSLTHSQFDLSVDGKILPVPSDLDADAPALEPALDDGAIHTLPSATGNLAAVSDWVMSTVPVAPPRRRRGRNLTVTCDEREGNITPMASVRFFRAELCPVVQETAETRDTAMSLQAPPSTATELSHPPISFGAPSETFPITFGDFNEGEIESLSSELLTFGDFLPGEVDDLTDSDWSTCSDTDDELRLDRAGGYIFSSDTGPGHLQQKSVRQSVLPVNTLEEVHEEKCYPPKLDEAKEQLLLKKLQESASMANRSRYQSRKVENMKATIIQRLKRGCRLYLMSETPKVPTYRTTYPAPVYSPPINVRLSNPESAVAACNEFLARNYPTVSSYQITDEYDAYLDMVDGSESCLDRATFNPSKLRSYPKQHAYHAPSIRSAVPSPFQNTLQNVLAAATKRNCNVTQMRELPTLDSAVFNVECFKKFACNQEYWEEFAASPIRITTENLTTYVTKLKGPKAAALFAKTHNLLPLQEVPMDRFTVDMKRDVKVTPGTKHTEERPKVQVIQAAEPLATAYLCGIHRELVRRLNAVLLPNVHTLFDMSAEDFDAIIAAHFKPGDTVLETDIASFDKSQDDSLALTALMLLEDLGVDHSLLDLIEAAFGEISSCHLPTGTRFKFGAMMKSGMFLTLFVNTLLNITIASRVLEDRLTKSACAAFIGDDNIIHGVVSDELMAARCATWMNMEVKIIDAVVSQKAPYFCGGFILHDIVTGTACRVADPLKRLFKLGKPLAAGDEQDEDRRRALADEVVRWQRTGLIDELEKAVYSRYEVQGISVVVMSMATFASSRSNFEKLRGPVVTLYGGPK
# * marks the source's active call; other numbers are inactive results; i = inactive; u = inconclusive; & = joins results of further samples; [ ] = dose if it differs, or a comment. % is scaled to controls: 0 for no effect and ±100 for the full control effect; potency is read from the fitted curve at half-maximal effect. An excerpt (hit frequency here may not be typical).
Structure | nsP2pro inh
COc1cc(O)cc(C)c1C(=O)OC1C(CO)OC(n2ccc(=O)[nH]c2=O)C1OC(C)=O (centres undefined) | 6%[10 µM]
CC(C)N(CCC(=O)c1ccc2ccccc2c1)Cc1ccccc1 | 0.56µM*
CCc1ccc(NC(=O)C(C)n2nnc3sc(-c4ccccc4)cc3c2=O)cc1 (centres undefined) | u
C=C1C(=O)OC2/C=C(\COC(C)=O)CC/C=C(\C=O)CC(OC(=O)CC(C)C)C12 (centres undefined) | -3%[10 µM]
Cc1ccc(C)c(NC(=O)CNS(=O)(=O)c2ccc3[nH]c(=O)oc3c2)c1 | 41%[activator]
O=C(/C=C/c1ccc(O)cc1)OC[C@H]1O[C@@H](O/C(=C\c2ccccc2)C(=O)O)[C@H](O)[C@@H](O)[C@@H]1O | -6%[10 µM]
Cc1cccc(C)c1NC(=O)CC12CCCN1CCC2 | -3%
COc1ccc([C@H](Cc2ccncc2)c2ccccc2)cc1OC1CCCC1 | 23%
COc1ccc(C2(C(=O)N3CCCCCC3c3nc(C4CC4)no3)CC2)cc1 (centres undefined) | -8%
CN(C)CCC=C1c2ccccc2C=Cc2ccccc21 | 5%
O=C(O)C1(c2ccc(-c3ccc(Cl)c(Cl)c3)c(F)c2)CC1 | 12%
COCc1cc(C)nc2sc3c(c12)NC(c1ccc(O)c(OC)c1)N(c1ccccc1)C3=O (centres undefined) | -12%

# The list goes on, starting with the last two of the part before.
Structure | nsP2pro inh
O=C(O)C1(c2ccc(-c3ccc(Cl)c(Cl)c3)c(F)c2)CC1 | 12%
COCc1cc(C)nc2sc3c(c12)NC(c1ccc(O)c(OC)c1)N(c1ccccc1)C3=O (centres undefined) | -12%
C[C@@H]1O[C@@H](O[C@H]2[C@H](O[C@H]3[C@H](O[C@H]4CC[C@@]5(C)C(CC[C@]6(C)C5CC=C5[C@@H]7CC(C)(C(=O)O)C[C@@H](O)[C@]7(C)CC[C@]56C)[C@@]4(C)CO)O[C@H](C(=O)O)[C@@H](O)[C@@H]3O)O[C@H](CO)[C@H](O)[C@@H]2O)[C@H](O)[C@H](O)[C@H]1O (some centres undefined) | u
CCCOc1ccc(-c2cccc(NS(=O)(=O)c3ccccc3)c2)nn1 | -4%
Cc1cc(N[S+](=O)([O-])c2ccc(NC(=O)Cc3ccccc3Cl)cc2)no1 | 1%
O=C(C1CCN(c2nc3ccccc3[nH]2)CC1)N1CCN(c2cccc(Cl)c2)CC1 | 4%
CC(=O)c1ccc(N2CCN(C(=O)c3ccc(Cn4c(=O)[nH]c5ccccc5c4=O)cc3)CC2)cc1 | -14%
Cc1ccccc1/C=C(\C#N)c1nc(-c2ccc(Cl)cc2)cs1 | -10%
C=CC(=O)Nc1cc(Nc2ncc(Cl)c(-c3c[nH]c4ccccc34)n2)c(OC)cc1N(C)CCN(C)C | 110%[activator]
O=C(Cn1ncc2ccccc2c1=O)N1CCCCC1CCn1cccn1 (centres undefined) | i
Cn1sc(Cl)cc1=O | -6%
COc1cccc(-c2cccc(CN3CCCC3C(=O)N3CCCCC3)c2)c1 (centres undefined) | i
Cc1ccc(NS(=O)(=O)c2c(C)[nH]c(=O)[nH]c2=O)c(C)c1 | -8%
COc1ccc(/C=C\C(=O)O)c(O[C@@H]2O[C@H](CO)[C@@H](O)[C@H](O)[C@H]2O)c1 | -2%
Cc1nc(C)c(C(=O)Nc2nn(Cc3ccccc3)c3cccc(OC(C)C)c23)o1 | -11%
COc1cc(OC)c(NS(=O)(=O)c2cc(-c3cnc(C4CC4)o3)ccc2C)cc1Cl | 6%
Cc1ccc(C)c(N2CCN(S(=O)(=O)c3cnc(N)nc3)CC2)c1 | -11%
O=[S+]([O-])(c1ccccc1)N1CCCC2(CC(c3cccc(C(F)(F)F)c3)=NO2)C1 (centres undefined) | i
Cc1c(NC(=O)c2sc3c([N+](=O)[O-])cccc3c2Cl)cccc1-c1nc2ccccc2o1 | -19%
C[C@]12CC[C@@H]3c4ccc(OC(=O)c5ccccc5)cc4CC[C@H]3[C@@H]1CC[C@@H]2O | -5%&-9%
CC(C)CN(CCNC(=O)c1cn(C)c2ccc(S(=O)(=O)N3CCCCCC3)cc2c1=O)CC(C)C | -13%
CN(C)C(=O)N1C[C@@H]2CN(C3CCOCC3)C[C@]2(C(=O)O)C1 | 5%
O=C(Nc1cccc(C(F)(F)F)c1)N[C@H]1[C@H](O)[C@@H](Oc2ccccc2)[C@@H]2OC[C@H]1O2 | -1%[39.2 µM]
CCCCNc1nc(C)nc2c1nc(-c1ccccc1)n2CC(C)(C)CN(C)C | -8%
O=C(c1ccccn1)N1C[C@@H]2OCC(=O)N(CC3CCCCC3)[C@@H]2C1 | 19%[39.2 µM]
CN(C)CCCN1c2ccccc2Sc2ccc(Cl)cc21 | 10%&3%
c1csc(CNc2ncnc3ccc(-c4ccc5c(c4)OCCO5)cc23)c1 | i
COC(=O)C1=COC(OC2OC(CO)C(O)C(O)C2O)C2C(C)C(OC(=O)/C=C/c3ccc(O)cc3)C(O)C12 (centres undefined) | 59%[activator][10 µM]
CCn1c(=O)cc(SCC(=O)NCc2ccc(OC)cc2OC)c2ccccc21 | -12%
O=C(CC(c1ccccc1)c1ccccc1F)N1CCN(c2ccncc2)CC1 (centres undefined) | i
Cc1cc2c(s1)c1cnn(Cc3cc(OC(F)(F)F)ccc3F)c(=O)c1n2C | -2%
CCN(CC)S(=O)(=O)c1ccc2c(c1)N(CC(=O)Nc1cccc(C)c1C)C(=O)C1CCCN21 (centres undefined) | -21%
O=C1NC2(CCN(C(=O)Cc3ccccc3)C2)OCc2ccccc21 (centres undefined) | i
CC1(C)Cc2c(-c3ccccc3)c(-c3ccc(Cl)cc3)c(CC(=O)O)n2C1 | -8%
COc1cc(OC)c(NC(=O)CCc2c(C)nc3c4c(C)cc(C)nc4nn3c2C)cc1Cl | -11%
CC(C)/C=C1/NC(=O)C(C(C)C)n2c1nc1c(O)cccc1c2=O (centres undefined) | u
COC(=O)Nc1ccc(-c2nc(N3CCOCC3)c3cnn(C4CCN(Cc5cccnc5)CC4)c3n2)cc1 | 195%[activator]
CC(=O)N1CCC(C(=O)N2CCCC(c3nc4ncccc4[nH]3)C2)CC1 (centres undefined) | 1%
CCOC(=O)C1CCN(C(=O)C2(NC(=O)Nc3ccccc3Cl)CCCC2)CC1 | 0%[10 µM]
COc1ccnc(NC(=S)N2CCN(c3cc(C(F)(F)F)cc(C(F)(F)F)c3)CC2)c1 | i
NC(=O)c1ccccc1 | -10%
CCn1cc(S(=O)(=O)N2CCOc3ccc(CN4CCCCCC4)cc3C2)cn1 | 0%
CCCCNC(=O)c1cccc(-c2cc(N3CCN(C)CC3)nc(N)n2)c1 | i
COc1cc2oc(-c3ccc(O)cc3O)cc2c(OC)c1CC=C(C)C | 7%
CCN(CC)C(=O)[C@@H]1CCC[C@@H](NC(=O)c2cnccn2)CN(C)C(=O)C1 | -8%[39.2 µM]
COc1cccc(C2c3c(ncn(-c4ccc(F)cc4)c3=N)Oc3ccc4ccccc4c32)c1 (centres undefined) | -5%
CNC(=O)c1ccc(N2C(=S)N(c3cnc(C#N)c(C(F)(F)F)c3)C(=O)C23CCC3)cc1F | -8%&-3%
CCCCc1ccc(NC(=O)CN2C(=O)NC3(CCS(=O)(=O)CC3)C2=O)cc1 | -8%
CCCCN(CC)C(=O)Nc1ccc2c(c1)N(C)C(=O)c1ccccc1S2 | -5%
O=C(c1cnc2c(c1)CCCC2)N1CCCn2nc(CO)cc2C1 | 1%
CC(C)Cc1ccc(CC(=O)O)cc1 | -5%
COc1ccc2c3c([nH]c2c1)C(C=C(C)C)N1C(=O)C2CCCN2C(=O)C1C3 (centres undefined) | -14%
O=C(CSc1nc2cc(C(=O)NC3CCCC3)ccc2c(=O)n1CC1CCCO1)c1cccc(Cl)c1 (centres undefined) | -17%
Cc1ccnc(NC(=S)Nc2cccc([S+](=O)([O-])Nc3ccccc3F)c2)c1 | -13%
Cc1ccc(CN2CCC3OCCN(Cc4ccccc4)C(=O)C3C2)o1 (centres undefined) | u
COc1cc(F)ccc1-c1cc(-c2ccc(=O)[nH]c2)c2cncn2c1 | u
CC(=O)OC1C(O)C(C)=C(CCC(C)CC(=O)O)C2(C)CCCC(C)(C)C12 (centres undefined) | 6%
O=C(Nc1ccc(F)c(F)c1)Nc1nnc(-c2ccncc2)s1 | -4%
CC[C@H](N)C(=O)O | -16%
O=C(COc1ccc(Cl)cc1Cl)Nc1cccc2cccnc12 | -8%
CC1=C(C(=O)O[C@@H]2O[C@H](COC3OCC(O)C(O)C3O)[C@@H](O)[C@H](O)[C@H]2O)C(C)(C)CCC1 (some centres undefined) | 64%[activator][10 µM]
O=C1CC(c2noc(-c3cccs3)n2)CN1C1CCCCC1 (centres undefined) | i

# Part of the list above, reformatted.
SMILES: CCc1ccc(NC(=O)C(C)n2nnc3sc(-c4ccccc4)cc3c2=O)cc1 (centres undefined)
  nsP2pro inh: u
SMILES: C=C1C(=O)OC2/C=C(\COC(C)=O)CC/C=C(\C=O)CC(OC(=O)CC(C)C)C12 (centres undefined)
  nsP2pro inh: -3%[10 µM]
SMILES: Cc1ccc(C)c(NC(=O)CNS(=O)(=O)c2ccc3[nH]c(=O)oc3c2)c1
  nsP2pro inh: 41%[activator]

# Additional results.
Structure | nsP2pro inh
Cn1cc(CN2CCN(C(=O)COc3ccc(F)cc3)CC2)ccc1=O | 1%
NC[C@@](O)(c1ccc(Cl)cc1)c1ccc(-c2cn[nH]c2)cc1 | 153%[activator]
CCCCc1ccc(CN2C[C@@H]3CC[C@H](C2)N(Cc2ccccn2)C3=O)s1 | i
COc1ccc(COC(=O)C2=C(C)NC(=O)CC2c2cccc(Cl)c2Cl)cc1 (centres undefined) | -11%
O=C(NCCCNc1nc(Nc2ccc(N3CCOCC3)cc2)ncc1C1CC1)C1CCC1 | -16%
COCCN1CCC(N2CCN(C(=O)c3ccsc3)CC2)C1=O (centres undefined) | -6%
COCCN1CCC2(CCC1=O)CN(C(=O)NC(C)C)CCN2C (centres undefined) | -1%
COc1ccccc1OCCNC(=O)c1ccc2c(c1)N(C)C1CCCCN1C2=O (centres undefined) | i
Cc1ccnc(NC(=S)N2CCCc3ccc(C(F)(F)F)cc32)c1 | i
COC(=O)N[C@@H](C)CNc1nccc(-c2cn(C(C)C)nc2-c2cc(Cl)cc(NS(C)(=O)=O)c2F)n1 | -14%&21%
COc1ccccc1NC(=O)c1sc2nc(C)c(C(=O)Nc3ccc(C)cc3C)c(-c3cccs3)c2c1N | -14%
C[C@@H]1CN(C[C@@H]2CN(C(=O)c3ccsc3)C[C@@H]2CO)C[C@H](C)O1 | -6%
Cc1cccc(NC(=O)CSc2nc3ccccc3c3nc(CCc4c(C)n[nH]c4C)nn23)c1 | -20%
COc1ccc(C(=O)N(Cc2ccccc2)Cc2ccccc2)cc1COc1ccc(NC(C)=O)cc1 | -2%
COc1ccc(-c2nc3ccccc3n2Cc2ccc(C(C)C)cc2)cc1 | -3%
Cc1c(CN(C)C(=O)c2cc(-c3ccccc3)nc3ccc(Br)cc23)cnn1C | -13%
COc1cccc(N2CCN(C(=O)C(CCSC)NS(=O)(=O)c3ccc4c(c3)oc(=O)n4C)CC2)c1 (centres undefined) | -15%
COc1cccc(S(=O)(=O)Nc2cnccc2C(=O)Nc2nc(-c3ccccc3)cs2)c1 | i
CC(=O)NCc1nnc2n1C(C(=O)N1CCN(C)CC1)CC2 (centres undefined) | -19%[39.2 µM]
CCC(C)NC(=O)C(=O)Nc1c2c(nn1-c1ccccc1)CS(=O)(=O)C2 (centres undefined) | -24%
COCCn1c(C)cnc1CCNS(=O)(=O)c1c(C)nn(C)c1C | 10µM*
CC1=C[C@@H](CO)[C@H](C(C)C)C[C@H]1CC(=O)NCc1cccnc1 | 17%[39.2 µM]
COC(=O)C1=COC(OC2OC(CO)C(O)C(O)C2O)C2C1CC(OC(=O)C(O)CC(=O)O)C2C (centres undefined) | u
Cc1noc(C)c1S(=O)(=O)N1C[C@@H](Oc2cccnc2)C[C@H]1C(N)=O | 2%
CC(=O)c1cccc(-c2ccc(-c3nc4ccccc4c(=O)[nH]3)o2)c1 | -1%
COc1c2c(c(C)c3c1C(=O)OC3)O[C@@]1(C)CCC3(C(C)(C)O)OC(=O)CC[C@]3(C)[C@H]1C2 (some centres undefined) | -3%[10 µM]
COc1cccc(CN2C(=O)c3ccccc3NC2c2ccc(OC)c(COc3ccc(NC(C)=O)cc3)c2)c1 (centres undefined) | u
CN1CCN(CCCN2c3ccccc3Sc3ccccc32)CC1 | 3%&45%[39.2 µM]
COc1ccc(-c2cc(C(F)(F)F)nc(SCC(=O)Nc3ccc(O)cc3)n2)cc1OC | 1%
Fc1ccc(-c2cc(-c3nc(-c4ccccc4)no3)[nH]n2)cc1 | -10%
CCOc1ccc(CCNC(=O)c2cc3ccccc3n2Cc2ccccn2)cc1OCC | 7.9µM*
CCOC(=O)c1ccc(-n2cnc3c(c2=N)C(c2cccc(OC)c2)c2c(ccc4ccccc24)O3)cc1 (centres undefined) | -21%
Cc1ccccc1Cn1c(=O)n(CCCCC(=O)NCCc2ccccc2)c(=O)c2ccccc21 | -23%
Cc1ccc(OCCn2c(CCNC(=O)c3ccc4ccccc4c3)nc3ccccc32)cc1 | -23%
COc1ccc(C(=O)Nc2ccc3oc(-c4ccc(F)cc4Cl)nc3c2)cc1 | -3%
Cc1ccnc(NC(=S)N2CCN(c3cccc(N(C)C)c3)CC2)c1 | -17%
CN1CCN(CCC=C2c3ccccc3Sc3ccc(S(=O)(=O)N(C)C)cc32)CC1 | 16%
C=CCNC(=O)N[C@H]1[C@H](O)[C@@H](N2CCC(Cc3ccccc3)CC2)[C@@H]2OC[C@H]1O2 | -11%[39.2 µM]
